Screening data: PubChem BioAssay, National Center for Advancing Translational Sciences (NCATS)
TRPML1 inh – human mucolipin-1 channel inhibition; Q9GZU1; TRPML1-inducible cells, Ca2+ dye fluorescence, FDSS; hits give low values; inhibition of EC80 agonist-evoked calcium signal; activity change, negative = inhibition, % (test concentration not listed); 0.02% of 390,000 active; AID 624415; in the data active means activity change below about -50%; inconclusive means about -30% to -50%; inactive means above about -30%;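 note: stimulus is agonist 54-4 at its EC80 concentration; % is set by controls: 0 for no effect and ±100 for the full control effect; compound concentration not given in the record; the text of the record puts the active cut at -80%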
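Calcium fluorescence in TRPML1-DL cells induced overnight with Tet: a 110 s read after compound pin addition, then a 110 s antagonist read after challenge with 54-4 at 4 uM final (EC80).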
Sfp inh – Sfp phosphopantetheinyl transferase inhibition | Biochemical Sfp PPTase activity, qHTS | Potency, µM, for inactives: max response, negative = inhibition, actives largely listed as inhibitors | 3.5% of 310,000 active | AID 1490; active = well fitted inhibition curve with a large enough effect; inconclusive = small, poorly fitted or top-dose-only effect, or another doubt; inactive = no such curve, though single readings can be large or run the other way;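 note: the enzyme is Sfp with the accession as filed and its product quenches rhodamine fluorescence; potency is the fitted concentration of half-maximal effect; 0% = enzyme reaction without inhibitor and -100% = no enzyme wells; top concentration of the series not given in the record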
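Reaction rates are the 30-min fluorescence difference (ex 525, em 598 nm) in wells containing 15 nM Sfp, 5 uM rhodamine-CoA and 12.5 uM BHQ-2-YbbR at pH 7.6 with 10 mM MgCl2.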
gsp antag – antagonists of gsp mutant (McCune-Albright syndrome); gsp-mutant cells, cAMP HTRF, 30 min; control for the full effect not named in the record; Potency, µM (titrated, usually from 76.9 µM), for the others: top-dose activity change, negative = inhibition, most hits filed as inhibitors; 0.4% of 340,000 active; active = falling curve of any shape with a large fitted effect; inconclusive = falling curve, mostly with a smaller effect; inactive = flat or rising curve; cell line not stated here;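 note: intracellular cAMP measured with PDE inhibitor Ro 20-1724 present during compound exposure; potency is the fitted concentration of half-maximal effect; % is set by controls: 0 for no effect and ±100 for the full control effect; nearly all actives have a fitted effect of over 65% in size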
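HTRF cAMP measurement after 30 min RT detection following 30 min, 37C compound treatment alongside […] (added as 300 uM solution) in G418-selected cells seeded at 2000/well and grown 16–24 h.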
gsp agonist – agonists of gsp mutant (McCune-Albright syndrome); gsp mutant cells, cAMP HTRF, 30 min; control for the full effect not named in the record; Potency, µM (top dose mostly 76.9 µM), without a hit: top-dose activation (cAMP increase), most hits filed as activators; 0.13% of 340,000 active; active = well fitted activation curve with a large enough effect; inconclusive = small, poorly fitted or top-dose-only effect, or another doubt; inactive = no such curve, though single readings can be large or run the other way; cell line not stated here;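 note: phosphodiesterase inhibitor Ro 20-1724 added with compounds to block cAMP breakdown; potency is the fitted concentration of half-maximal effect; nearly all actives have a fitted effect of over 60% in size; about a fifth of the inactives were tested at one dose only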
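Cells stably selected in G418 were plated at 2000/well, grown 16-24 hr, then given compounds in DMSO with the PDE inhibitor […] (300 uM solution added) for 30 min at 37C; cAMP was read by HTRF.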
ClpP mod – qHTS Assay for Activators of ClpP | 1.9% of 340,000 active | ATP-dependent Clp protease proteolytic subunit (Bacillus subtilis (strain 168)), P80244 | Potency, µM (series often up to 57.5 µM), for the others: top-dose activity change, negative = active | purified B. subtilis ClpP, FRET peptide cleavage, 20 min; active = well fitted falling curve with a large enough effect; inconclusive = small, poorly fitted or top-dose-only effect; inactive = no such curve, though single readings can be large or run the other way; note: potency is the fitted concentration of half-maximal effect; the source files actives as falling curves though it sought activators and does not explain the sign; nearly all actives have a fitted effect of over 65% in size; many hits overshoot -100%
Target sequence (P80244 whole entry, looked up): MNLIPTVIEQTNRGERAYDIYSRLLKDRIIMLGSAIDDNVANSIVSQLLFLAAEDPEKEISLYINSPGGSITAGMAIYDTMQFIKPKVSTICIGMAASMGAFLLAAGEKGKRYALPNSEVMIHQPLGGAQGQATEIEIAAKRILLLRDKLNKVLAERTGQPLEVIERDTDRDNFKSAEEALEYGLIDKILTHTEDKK
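ClpP 10 microg/mL final, pH 8 Tris/KCl buffer with BSA, glycerol, Tween-20; compound pinned in; FRET-FV substrate; RT 20 min; Ex320/Em430; ΔFRET vs ADEP 5.8 microM, DMSO, no enzyme.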
TRPV1 potentiator – enhances activation of the human vanilloid receptor TRPV1; 0.02% of 320,000 active; AID 540277; TRPV1-expressing cells, Fluo-8 calcium influx, capsaicin EC20 potentiation; host cell line not named in the record; control for the full effect not named in the record; potentiation, % at 8.33 µM; active means potentiation above 80%; inconclusive means 30% to 80%; inactive means below 30%; note: 0% is about no effect
Target sequence (Q8NER1 whole entry, looked up): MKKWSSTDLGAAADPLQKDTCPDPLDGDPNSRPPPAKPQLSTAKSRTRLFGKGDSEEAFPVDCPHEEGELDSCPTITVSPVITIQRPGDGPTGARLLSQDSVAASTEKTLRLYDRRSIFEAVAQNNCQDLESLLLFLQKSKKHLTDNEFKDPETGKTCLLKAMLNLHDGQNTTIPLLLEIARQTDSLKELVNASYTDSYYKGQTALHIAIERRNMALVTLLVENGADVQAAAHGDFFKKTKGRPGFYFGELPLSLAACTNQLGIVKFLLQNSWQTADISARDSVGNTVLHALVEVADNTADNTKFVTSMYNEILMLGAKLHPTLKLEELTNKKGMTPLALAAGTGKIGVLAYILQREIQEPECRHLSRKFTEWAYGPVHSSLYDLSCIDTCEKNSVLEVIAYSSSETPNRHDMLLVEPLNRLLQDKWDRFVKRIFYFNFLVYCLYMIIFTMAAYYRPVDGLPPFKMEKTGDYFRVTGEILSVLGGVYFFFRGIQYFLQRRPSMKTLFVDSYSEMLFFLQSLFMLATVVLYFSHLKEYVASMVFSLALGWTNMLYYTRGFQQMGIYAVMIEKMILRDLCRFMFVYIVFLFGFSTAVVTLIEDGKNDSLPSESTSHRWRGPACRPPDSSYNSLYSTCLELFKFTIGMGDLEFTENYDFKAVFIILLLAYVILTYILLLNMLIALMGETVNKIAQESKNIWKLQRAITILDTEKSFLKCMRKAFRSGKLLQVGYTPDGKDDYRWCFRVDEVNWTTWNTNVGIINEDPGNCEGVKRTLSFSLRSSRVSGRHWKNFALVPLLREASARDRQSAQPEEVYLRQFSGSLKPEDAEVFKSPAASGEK
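TRPV1-expressing cells were cultured overnight at 35.5C and loaded with Fluo-8 calcium dye for 40 to 90 min at room temperature. After a 10 s baseline, compound was added and calcium influx was read kinetically for 3 min (ex 480/em 520 nm).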
Menin MLL FP FL – inhibitors of human menin-MLL interaction, wild-type MLL peptide. FP activity change, % at 61.4 µM. Fluorescence polarization, fluorescein-MLL peptide displacement from menin. 290,000 tested, under 10 active; inconclusive = falling polarisation curve, or a change in total fluorescence; inactive = total fluorescence flat and polarisation flat or rising; no compound was filed as active; the % refers to the polarisation; negative = inhibition;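 note: % of control where 0% means no effect; inhibitors lower the polarisation; unlabelled MLL peptide was the positive control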
The depositor's hits bear a star; ? = inconclusive; . = no result given; [ ] = remark or other dose.

SMILES	TRPML1 inh	Sfp inh	gsp antag	gsp agonist	ClpP mod	TRPV1 potentiator	Menin MLL FP FL
Cc1cc(C)c(C#N)c(SCC(=O)Nc2nonc2N)n1	-11.5	12.2%	-36.3%	8.7%[15.4 µM]	.	-0.9	0.7
Cc1ccccc1CS(=O)(=O)Cc1ccc(C(=O)NCCCN2CCCC2=O)o1	7.0	11.2%	5.6%	-14.2%	0.2%	11.2	6.3
O=C(NC1CCCC1)c1cc(-c2ccc(Cl)cc2)on1	-2.2	14.5%	-6.8%	-8.3%	.	-6.9	1.1
CSc1nnnn1-c1cccc(O)c1	-5.3	14.8%	1.8%	3.9%	-3.9%	-2.9	2.4
O=C(N/N=C/c1cccc(OC(=O)c2cccc(Br)c2)c1)c1ccncc1	-26.5	5.4%	?	-4.8%[15.4 µM]	-0.8%	-9.9	2.2
O=C(NC1CCN(Cc2ccccc2)CC1)C1CCN(S(=O)(=O)c2ccccc2)CC1	7.4	11.8%	4.8%	17.5%	.	8.5	-0.8
O=C1C(=O)N(Cc2cccnc2)C(c2cccc(Br)c2)/C1=C(/O)c1ccc2c(c1)OCO2 (stereo not drawn)	8.8	-17.7%	-7.3%	?	-3.7%	1.8	.
c1ccc(-n2cnc3cc(NCc4ccncc4)ccc32)cc1	7.6	-25.7%	-13.3%	-5.8%	-8.3%	14.6	0.1
c1ccc(N2CC3COc4ccccc4C3=N2)cc1 (stereo not drawn)	-5.0	.	-2.7%	?	25.1µM*	.	.
CC(C)(C)CCN1CCC(CN2CCNC2=S)CC1	26.5	.	.	-36.1%[inhibitor]	-5.1%	.	.
Cc1ccc(NC(=O)c2ccc3c(c2)C(=O)N(CC2CCCO2)C3=O)cc1C (stereo not drawn)	-2.5	4.7%	-25.4%	-17.0%	.	-4.6	-2.9
O=C(c1ccc(OC2CCN(Cc3ccccn3)CC2)cc1)N1CCCCO1	29.3	5.1%	8.1%	-8.9%[15.4 µM]	.	2.2	2.7
CC(=O)N1CCCc2cc(S(=O)(=O)N(CC(C)C)CC(C)C)ccc21	-1.4	0.0%	-3.3%	-32.7%[inhibitor]	0.2%	-1.5	0.9
Cc1cccc(C(=O)Nc2ccc(C(=O)N/N=C/c3ccc4c(c3)OCO4)cc2)c1	-9.6	7.4%	?	-18.9%	.	-16.7	5.7
O=c1c(Br)c(Br)cnn1-c1ccccc1	18.6	26.6%	12.5%	32.8%[15.4 µM]	.	?	-0.4
CC(=O)c1cc(-c2ccccc2)n(CC(=O)N2CCCCC2)c1C	0.8	-1.3%	-8.1%	-9.2%	-2.9%	4.0	-2.4
COCC(=O)N(C)[C@H]1C[C@H]2c3[nH]c4ccccc4c3CCN2C(=O)[C@H]1[C@H](C)O	0.0	.	.	-5.3%	4.1%	.	.
O=C(CN1CC(=O)Nc2ccccc21)Nc1ccc(F)c(F)c1	3.4	39.8µM*	1.6%	-40.6%	-12.7%	9.7	20.3
Cc1nc(Cl)c(C#N)c2c1CCCC2	13.3	1.1%	0.9%	4.7%	-0.2%	3.5	-11.5
CCOc1ccccc1N(CC(=O)NCCOC)C(=O)CCC(=O)Nc1ccccn1	-3.6	8.2%	5.9%	2.3%	.	6.8	-0.5
CCOc1ccc(NC(=O)c2ccc(F)cc2F)cc1	14.7	.	8.7%	.	?	.	.
COc1ccc(C2=C(Nc3ccccc3)c3ccccc3C2=O)cc1	-8.9	5.3%	-8.8%	-5.9%[15.4 µM]	-0.3%	-9.7	0.5
N#Cc1c(NC(=O)CCCC(=O)O)sc2c1CCCCC2	-4.8	56.2µM*	-16.1%	-0.9%	-0.4%	1.8	-12.8
CCCCCCSc1cccc(-c2nc3ccc(C)cn3c2NC2CCCCC2)c1	-4.2	.	-8.2%	-2.4%	4.5%	10.6	.
O=C(NC1CCCCC1)c1cccc(S(=O)(=O)N2CCCCC2)c1	7.3	8.8%	7.5%	-24.1%	.	-3.5	0.8
CCOC(=O)N1CCN(C2CC(=O)N(c3ccccc3)C2=O)CC1 (stereo not drawn)	-1.5	19.4%	11.1%	-22.7%	0.4%	3.6	-0.6
O=C1c2ccccc2[C@@H]2C[C@@H](O)[C@H](Nc3cccc4ccccc34)CCN12	25.6	.	-16.1%	.	4.7%	.	.
Cc1ccc(N(C(=O)Cc2cccs2)C(C(=O)NCC2CCCO2)c2ccncc2)cc1 (stereo not drawn)	4.3	16.8%	-6.8%	-2.5%[15.4 µM]	.	-0.7	-1.3
CN1CCN(c2ccc(C(CC(N)=O)NC(=O)Cc3cccc4ccccc34)cc2[N+](=O)[O-])CC1 (stereo not drawn)	-14.9	3.6%	6.6%	16.4%	1.2%	-2.8	-0.3
O=C(NN1CCOCC1)c1cc(-c2ccncc2)nc2ccccc12	13.8	7.1%	11.7%	-0.7%[15.4 µM]	-10.6%	8.0	0.7
Cn1c(CC(=O)NNC(=O)c2ccccc2F)nc2ccccc21	2.2	.	3.4%	15.4%	-0.7%	2.6	.
Cc1cccc(NC(=O)COC(=O)c2cccc(S(=O)(=O)N3CCCCCC3)c2)c1	-7.6	.	-4.8%	13.2%	-0.4%	-0.9	.
CCC(C)N1CCC2(CC1)N=c1c(c3c4c5c(C)c(O)c3c(O)c1=NC(=O)C(C)=CC=C[C@H](C)[C@H](O)[C@@H](C)[C@@H](O)[C@@H](C)[C@H](OC(C)=O)[C@H](C)[C@@H](OC)C=CO[C@@](C)(O5)C4=O)N2 (stereo partly drawn)	-13.9	.	-17.2%	.	3.1%	0.4	.
CC1CCCCC1NC(=O)COC(=O)c1ccc2c(c1)NC(=O)CS2 (stereo not drawn)	1.9	.	0.6%	7.2%[15.4 µM]	0.8%	.	.
O=C(C1CCC1)N1CCN(S(=O)(=O)c2ccc([N+](=O)[O-])cc2)CC1	3.4	.	14.3%	?	1.7%	-15.2	.
CCOC(=O)N1CCN(C(=S)Nc2ccc(C)cc2)CC1	-7.6	6.9%	9.3%	-23.9%	-12.3%	-34.8	0.9
COCCCNCCOCCOc1ccccc1-c1ccccc1	-5.4	?	-2.9%	7.0%	1.0%	1.4	-1.8
CC(C)OC(=O)c1ccc(N2CCN(c3ccc(F)cc3)CC2)nc1	30.2	17.6%	-1.8%	-7.2%	?	-1.2	-0.9
O=C(O)[C@H]1CCCN1C(=O)c1ccccc1N1C(=O)[C@@H]2Cc3c([nH]c4ccccc34)C(c3cccc(Cl)c3)N2C1=O (stereo partly drawn)	.	20.8%	9.8%	.	-1.9%	1.7	-1.7
Cc1cc(CNC(=O)CC2C(=O)NCCN2CC(c2ccccc2)c2ccccc2)on1 (stereo not drawn)	-17.1	9.2%	-6.7%	-12.2%[15.4 µM]	.	1.2	-6.4
Cn1cc(S(=O)(=O)N2CCCC2)cc1C(=O)NCc1ccc(F)cc1	29.6	-0.8%	7.0%	6.7%	-2.6%	0.3	-3.7
COc1ccc(NS(=O)(=O)c2cc(NC(=O)CCc3ccccc3)ccc2N2CCOCC2)cc1	48.5	.	-8.9%	-49.0%	0.2%	.	.
CC(=O)Nc1cccc(NC(=O)CSc2nnnn2C(C)C)c1	3.5	15.8%	-4.3%	-21.5%	-0.4%	-17.6	4.0
CSCC[C@H](NC(=O)N1CCn2c1nc1ccccc12)C(=O)N1CCCCC1	3.5	10.0%	-13.6%	?	-2.0%	0.7	-2.6
CN(C)c1nc(N)nc(-c2nc3ccccc3s2)n1	-17.2	22.1%	14.3%	-12.2%	-15.8%	2.7	2.3
Cc1cc(NC(=O)C(=O)NCCN2CCN(C(=O)c3cccs3)CC2)ccc1Br	6.1	11.5%	-18.3%	-21.4%	0.4%	-5.7	-1.0
CCNC(=S)SCCOc1ccccc1C	-10.9	-3.4%	-0.6%	-14.6%	-4.8%	2.3	3.9
COCCN(C(=O)CSc1nnc(-c2ccc(F)cc2)n1N)c1c(N)n(CC(C)C)c(=O)[nH]c1=O	1.1	.	.	-19.3%	1.2%	.	.

Looked up above:
`CSCC[C@H](NC(=O)N1CCn2c1nc1ccccc12)C(=O)N1CCCCC1` in TRPML1 inh: 3.5
`CC(C)OC(=O)c1ccc(N2CCN(c3ccc(F)cc3)CC2)nc1` in TRPV1 potentiator: -1.2

The listing continues.
SMILES	TRPML1 inh	Sfp inh	gsp antag	gsp agonist	ClpP mod	TRPV1 potentiator	Menin MLL FP FL
O=C(CCN1CCN(c2ccccc2)CC1)Nc1ccccc1	-26.2	17.4%	-16.9%	-23.5%	0.8%	-19.2	0.7
Cn1c(=O)[nH]c(=O)c2c1nc(CN1CCN(c3ccccc3F)CC1)n2CC(N)=O	-10.4	22.6%	6.4%	1.0%	1.3%	-5.8	2.4
COc1ccc(C2(C)NC(=O)N(CC(=O)Nc3ccc(C)cc3Br)C2=O)cc1OC (stereo not drawn)	19.6	1.3%	1.8%	5.5%	.	-0.9	-0.2
CCCc1nc2nc(C)c(NS(=O)(=O)c3ccc([N+](=O)[O-])cc3)c(=O)n2[nH]1	-11.6	-8.4%	-1.7%	-44.2%[inhibitor]	.	?	-2.0
CN(C)S(=O)(=O)c1cccc(C(=O)Nc2cc3c(cc2C(=O)O)OCCCO3)c1	-7.0	14.3%	-16.0%	53.9%	0.6%	0.1	2.5
CCOC(=O)C1CCCCN1C(=O)CCn1nnnc1CN1CCOCC1 (stereo not drawn)	13.8	15.1%	10.8%	20.5%	0.1%	3.4	1.7
COc1cc(/C=N/Nc2ccc(Cl)c(C(=O)O)c2)ccc1OC(=O)c1cccs1	-6.4	-7.5%	0.3%	-9.9%[15.4 µM]	.	1.7	-4.1
CN(/N=C/c1ccc2c(c1)OCO2)c1ccccc1	10.8	?	-4.2%	-25.4%	-0.3%	-17.3	1.9
CO/N=C/c1c(C(=O)OC)nn(-c2ccccc2)c1Cl	15.9	15.4%	3.4%	-4.9%	-0.7%	-0.6	-3.1
O=C1c2ccccc2C(Nc2ccc(S(=O)(=O)N3CCCCCC3)cc2)N1c1ccccn1 (stereo not drawn)	27.2	-13.8%	17.5%	-4.0%	1.3%	21.5	-3.0
COc1cc(C(=O)NNC2=NC(C)(C)Cc3cc(C)c(C)cc32)cc(OC)c1OC	-21.9	24.1%	-0.2%	?	-1.0%	?	4.5
